Screening data deposited in PubChem BioAssay by National Center for Advancing Translational Sciences (NCATS).
VACV Venus inh: inhibitors of vaccinia virus (Venus reporter); hit rate 0.46% among 330,000; Vaccinia virus Venus reporter expression, fluorescence; Potency, µM (series often up to 36.5 µM), for inactives: top-dose activity change, negative = inhibition, most hits filed as inhibitors; active means well fitted inhibition curve with a large enough effect; inconclusive means small, poorly fitted or top-dose-only effect; inactive means no such curve, though single readings can be large or run the other way; tested in A549 cells; note: nearly all actives have a fitted effect of over 30% in size; inactives centre near -10
Vaccinia mCherry: inhibitors of vaccinia virus infection (mCherry reporter signal); Potency, µM (top dose mostly 36.5 µM), for inactives: at the top dose activity change, negative = inhibition, usual class: inhibitors; hit rate 0.63% among 310,000; Vaccinia virus mCherry reporter infection, fluorescence; about a quarter of the inactives have no number; active = well fitted inhibition curve with a large enough effect; inconclusive = small, poorly fitted or top-dose-only effect; inactive = no such curve, though single readings can be large or run the other way; tested in A549 cells; note: nearly all actives have a fitted effect of over 35% in size; inactives centre near -10
* marks the source's active call; other numbers are inactive results; i = inactive; u = inconclusive; x = no result given; & = joins results of further samples; [ ] = another dose, or the depositor's remark. % is set by controls: 0 for no effect and ±100 for the full control effect; potency is the fitted concentration of half-maximal effect.

SMILES	VACV Venus inh	Vaccinia mCherry
Cc1ccc(NC(=O)c2nc[nH]c2C(=O)N[C@@H](CCCCNC(=O)OC(C)(C)C)C(=O)OC(C)(C)C)cc1	u	u
O=C(O)Cc1cnc[nH]1	-12%&-7%&-10%	-4%&-14%
COc1ccccc1NC(=O)CNC(c1ccccc1)c1ccccc1	-1%	-8%
O=C(COC(=O)c1cc(=O)c2ccccc2o1)NCC1CCCCC1	4%	i
CCN1CCN(c2ccc(S(=O)(=O)N3CCOCC3)cc2NC(=O)/C=C/c2ccc([N+](=O)[O-])cc2)CC1	u	u
CC1CCCC(C)N1C(=O)COC(=O)c1ccc[nH]c1=O (centres undefined)	-12%	x
COc1ccccc1NC1=NC(C)(C)N=C(N)N1	2%	1%
Cc1cccc(C(=O)N2CCC(=O)N(C(COCc3ccc(Cl)cc3)Cc3ccccc3)CC2)c1 (centres undefined)	-28%	-25%
O=C1c2ccccc2C(=O)N1/N=C/c1ccc(Oc2ccc([N+](=O)[O-])cn2)cc1	-5%	-2%
CCCC(=O)O[C@]1(C(=O)CO)CC[C@H]2[C@@H]3CCC4=CC(=O)CC[C@]4(C)[C@H]3[C@@H](O)C[C@@]21C	-11%&-5%	-15%&-15%
Cc1ccc(S(=O)(=O)N2CCCC(C(=O)NC3CCCC3)C2)cc1 (centres undefined)	-8%	i
O=C(C1=C(O)C(=O)N(CC2CCCO2)C1c1ccc(Cl)cc1Cl)c1ccco1 (centres undefined)	-6%	i
CC(=O)N1CCc2c(sc3c2c(=O)n(-c2ccccc2C)c(=O)n3CC(=O)Nc2ccccc2)C1	-4%	-11%
CC(=O)c1ccc(N=C2C(=O)Nc3ccccc32)cc1	-1%	-19%
O=C(c1cccc(S(=O)(=O)N2CCN(c3ccccc3)CC2)c1)N1CC=C(c2ccccc2)CC1	-25%	u
CCOc1ccc(-c2nnc(-c3ccc(OC)cc3)o2)cc1	-3%	x
O=C(CCCSc1ccccc1)Nc1cccc(CO)c1	3%	-6%
COc1cc(/C=N/NC(=O)c2ccc(NC(=O)C3CCCCC3)cc2)ccc1O	-13%	u
CCOC(=O)/C(C#N)=C\c1cc(OC)c(OC)cc1[N+](=O)[O-]	-4%	0%
Cc1cc(C)cc(OCC(=O)N2N=C(C(F)(F)F)CC2(O)C(C)(C)C)c1 (centres undefined)	u	u
O=C(C1CCN(Cc2ccccc2O)CC1)N1CCN(Cc2ccc3c(c2)OCO3)CC1	-5%	i
O=C(NCCCO)/C(=C/c1ccc(-c2cccc([N+](=O)[O-])c2)o1)NC(=O)c1ccccc1	1%	10%
Cc1ccc2c(CN3CCN(c4ccccc4)CC3)cc(=O)oc2c1	0%	12%
S=C1NCN(Cc2ccccc2)CN1C1CCCCC1	-17%	-24%

4 of the compounds above, as labelled records.
SMILES: COc1ccccc1NC1=NC(C)(C)N=C(N)N1
  VACV Venus inh: 2% | Vaccinia mCherry: 1%
SMILES: Cc1cccc(C(=O)N2CCC(=O)N(C(COCc3ccc(Cl)cc3)Cc3ccccc3)CC2)c1 (centres undefined)
  VACV Venus inh: -28% | Vaccinia mCherry: -25%
SMILES: O=C1c2ccccc2C(=O)N1/N=C/c1ccc(Oc2ccc([N+](=O)[O-])cn2)cc1
  VACV Venus inh: -5% | Vaccinia mCherry: -2%
SMILES: CCCC(=O)O[C@]1(C(=O)CO)CC[C@H]2[C@@H]3CCC4=CC(=O)CC[C@]4(C)[C@H]3[C@@H](O)C[C@@]21C
  VACV Venus inh: -11%&-5% | Vaccinia mCherry: -15%&-15%

Remaining list, next part
SMILES	VACV Venus inh	Vaccinia mCherry
CCOc1ccc(CC(=NCCc2ccccc2)C2=C(O)CC(C)(C)CC2=O)cc1OCC	-13%	-29%
CCCN(CCC)c1nc(NC2CCN(C(=O)OCC)CC2)nc(OC)n1	u	x
Cn1c(=S)c2[nH]c(SCCN3CCCC3)nc2n(C)c1=O	-13%	0%
COc1cccc(C2CC(=O)Nc3c2c(=O)[nH]c2ncnn32)c1 (centres undefined)	-3%	2%
O=C1OCCC1Sc1nnc(-c2ccco2)n1-c1ccccc1 (centres undefined)	-4%	-5%
COc1ccc(C(c2sc3nc(C)nn3c2O)N2CCC3(CC2)OCCO3)cc1 (centres undefined)	-7%	-11%
CC(=O)c1ccc(NC(=S)Nc2ccc3cn[nH]c3c2)cc1	-7%	6%
COCCn1c(SCC(=O)Nc2ccccc2F)nnc1-c1ccoc1C	-2%	i
CC(=O)NC(Nc1nc2c(s1)CCCC2)(C(F)(F)F)C(F)(F)F	-8%	i
Cc1ccc(NC(=O)c2cccc(NC3=NC4CS(=O)(=O)CC4S3)c2)cc1 (centres undefined)	-13%	-4%
COc1ccc(C2(C(=O)Nc3ccc(C)cc3)CCOCC2)cc1	-3%	-9%
CCOC(=O)N1CCN(C(=O)COc2ccc3oc4c(c3c2)CCCC4)CC1	-24%	-29%
Cn1ccc(C(=O)N/N=C/c2cccnc2)n1	-4%	i
COc1ccccc1CCC(=O)N(C)CC(=O)Nc1ccc(F)cc1	-16%	i
Cc1cccc(C#Cc2ccccc2)n1	-16%&-11%&-14%	-6%&24%
Cc1nnc(N)nc1C	-19%	x
COc1ccc(-c2csc(N3CCOCC3)n2)cc1OC	-25%	x
COc1ccccc1NS(=O)(=O)c1cccc(NC(=O)c2cncc(Br)c2)c1	-28%	-9%
CCc1ccccc1N1CC(c2nc3ccccc3n2CCCOc2ccc(Cl)cc2)CC1=O (centres undefined)	4%	-7%
COc1ccc(-c2coc3cc(O)c(OC)cc3c2=O)cc1	-27%	-7%
O=C(Nc1nc(-c2cccnc2)cs1)c1ccccc1F	-3%	1%
Cc1ccc2nc(SCC(=O)Nc3cccc4ccccc34)nc(=O)n2c1	-25%	-2%
CCN(CC)CCN1C(=O)C(O)=C(C(=O)c2cc3ccccc3o2)C1c1cccnc1 (centres undefined)	-17%	i
C=CCNC(=S)N/N=C(\C)c1cc(OC)c(OC)c(OC)c1	-20%	u
CC1CN(c2ccccc2)NC1=O (centres undefined)	9%	u
CCc1ccc(O)c(-c2cc(C(=O)Nc3cccnc3)[nH]n2)c1	-20%	u
COc1cccc(N2CCN(C(=O)Nc3ccccc3Cl)CC2)c1	-19%	i
O=C(c1ccco1)N1CCCC(N2CCN(c3ccccc3F)CC2)C1 (centres undefined)	3%	-2%
COC(=O)C1=C(C(=O)OC)[C@@H]2N(C)c3ccccc3[C@@]23C[C@@H](C(=O)OC)N(C(=O)c2cc(C)oc2C)C3=N1	-21%	-21%
CCN(Cc1ccccc1)C(c1cccc(C#N)c1)c1nnnn1C(C)(C)C (centres undefined)	-16%	u
CCCCOc1ccc(CC(=O)N(C)O)cc1	-7%	-21%
Cc1ccc(NC2(C#N)C(=O)Nc3ccccc32)cc1C (centres undefined)	14%	2%
COc1ccccc1CC(=O)c1ccccc1OC	-5%	-18%
Cc1cc(C(=O)COc2ccccc2Cl)c(C)n1-c1ccc2c(c1)OCO2	0%	-1%
N#Cc1ccc(-c2csc(NNC(=O)c3ccc(Br)cc3)n2)cc1	14µM*	x
CCN1C(=NCCCCO)N[C@@H](c2cccc(F)c2)C(C(=O)OC)=C1C	-23%	-21%
O=C(COC(=O)/C=C/c1ccc(C(F)(F)F)cc1)NC(=O)NCc1ccco1	-13%	-15%
c1c2c(cc3sc(N4CCCCC4)nc13)OCCO2	-19%	-6%
O=C(O)/C=C/C(=O)Nc1ccc(Oc2ccccc2)cc1	-5%	-12%
CCN(CC)c1ccc(C(=O)NNC(=O)CCl)cc1	-9%	-6%
CC(C)(C)NC(=O)c1c(F)c(F)c(F)c(F)c1F	-10%	-13%
CCC(=O)N1CCc2cc(Br)cc(S(=O)(=O)N(CC)Cc3ccccc3)c21	-1%	-13%
Cc1ccc(S(=O)(=O)NN2C(=O)c3ccccc3NC2c2ccccc2F)cc1 (centres undefined)	-3%	-8%
CCOc1ccc(NC(=O)c2nc(SCc3ccccc3F)ncc2Cl)cc1	-7%	29%
COc1ccc(N(C(=O)c2snc(C(N)=O)c2N)C(C(=O)NC2CCCC2)c2cc(OC)ccc2OC)cc1 (centres undefined)	-13%	0%
CN1CCC(N(C)C(=O)COc2ccccc2Cl)CC1	-8%	-12%
CCCSc1nnc(NC(=O)Cc2ccc(OC)c(OC)c2)s1	-9%	-11%
[O-]/C(=C(\C(=S)Nc1cccc2ccccc12)[n+]1ccccc1)c1ccc(OC(F)F)cc1	8%	7%
COc1cc(NC(=O)c2cc3ccccc3o2)ccc1NC(=O)c1ccco1	-11%	-11%
Cc1ccc(CSc2nnc(-c3cnccn3)n2C)cc1	-8%[7.34 µM]	i[7.34 µM]
Cc1nnc(N(Cc2ccco2)C(=O)c2ccc(C#N)cc2)s1	-12%	x
COc1ccc(C2=NN(C(=O)CSc3nc(=O)n4cccc(C)c4n3)C(c3ccc(C)cc3)C2)cc1 (centres undefined)	-10%	-15%
COc1ccc(C(=O)N/N=C(/C)c2cccc(NC(=O)c3ccccc3F)c2)cc1	-4%	-19%
CC(C)(C)C(=O)Cn1c(=O)n(CCCCCC(=O)NCc2ccccc2Cl)c(=O)c2sccc21	-14%	-22%
Cc1ccc(C(=O)Nc2nc(COc3ccccc3)cs2)s1	-28%	-9%
Cc1ccc(N=c2c([N+](=O)[O-])nn(-c3ccc(Cl)cc3)n2O)cc1C	0%	-6%
Cc1cc(C)nc(N/N=C/c2cn[nH]c2-c2ccccc2)n1	-1%	-2%
CC(C)c1ccc([C@@H]2O[C@H](CCc3ccccc3)Cc3[nH][nH]c(=O)c32)cc1	5%	7%
O=C(Cc1cccc(NC(=O)C2CCCN(C(=O)CCc3ccccc3)C2)c1)Nc1cccc(C(=O)N2CCCCC2)c1 (centres undefined)	0%	i
CN(C)CCCN(C(=O)COc1ccc(Cl)cc1)c1nc2cc3c(cc2s1)OCCO3	-8%	i
The list goes on.
SMILES	VACV Venus inh	Vaccinia mCherry
Clc1ccc(OCCCCN2CCCCC2)cc1	2%	i
Cc1nc(C)c(C(=O)N2CCCC(CCC(=O)NCc3ccc(F)c(F)c3)C2)s1 (centres undefined)	-3%	i
CCCCOc1ccc(C(=O)Nc2ccc(S(=O)(=O)Nc3nc(C)cc(C)n3)cc2)cc1	-8%	-15%
N[C@@H](Cc1ccc(O)c(O)c1)C(=O)O	-11%	-12%
O=C(Nc1nccs1)c1cc2c(s1)CCCCC2	u	x
COc1cccc(-n2c(N)c(C(=O)Nc3c(C)n(C)n(-c4ccccc4)c3=O)c3nc4ccccc4nc32)c1	2%	-17%
CC1CCc2nc(NC(=O)CN3CCN(Cc4ccc5c(c4)OCO5)CC3)sc2C1 (centres undefined)	u	x
COc1ccc(CCNC(=O)CCNC(=O)N2CC(=O)Nc3ccccc32)cc1OC	-7%	-18%
CC(=O)C1=C(C)OC(N)=C(C#N)C1c1cccnc1 (centres undefined)	-1%	-2%
O=C(O)CC(O)C(=O)O (centres undefined)	-9%	-4%
Cc1nc(C)c(C(=O)OCC(=O)NCCc2ccc(F)cc2)s1	-4%	-14%
COc1cccc(-c2ncc3ccccc3c2COC(=O)N(C)C)c1	-20%	u

One compound at a time, from the list above.
CCCCOc1ccc(C(=O)Nc2ccc(S(=O)(=O)Nc3nc(C)cc(C)n3)cc2)cc1 in the list: VACV Venus inh = -8%; Vaccinia mCherry = -15%
COc1ccc(CCNC(=O)CCNC(=O)N2CC(=O)Nc3ccccc32)cc1OC in the list: VACV Venus inh = -7%; Vaccinia mCherry = -18%
Cc1nc(C)c(C(=O)OCC(=O)NCCc2ccc(F)cc2)s1 in the list: VACV Venus inh = -4%; Vaccinia mCherry = -14%

Next compounds.
SMILES	VACV Venus inh	Vaccinia mCherry
Cc1ccc(S(=O)(=O)N2C[C@H]3C(=O)C[C@@H](c4ccccc4)N(S(=O)(=O)c4ccc(C)cc4)[C@H]3C[C@H]2c2cccc3ccccc23)cc1	-5%	7%
CN(C)S(=O)(=O)c1ccc(N2CCCC2=O)c([N+](=O)[O-])c1	-9%	-7%
O=C(NCCO)c1cc2cc(Cl)cc(Cl)c2oc1=O	1%	-8%
CC1(c2nnc(-c3cccc(Cl)c3)o2)CC(c2cccnc2)=NO1 (centres undefined)	-2%	-22%
Cc1ccc(-n2nc3ccc(NC(=O)Cc4ccc(Cl)cc4)cc3n2)cc1	-6%	-13%
O=Cc1c(N2CCSCC2)nc2ccccn2c1=O	-16%	i
Cc1ccc(C(=O)NC2CCSC2=O)cc1 (centres undefined)	-2%	-14%
CCOc1ccc(S(=O)(=O)N2CCCCC2)cc1NC(=O)CN1C(=O)NC(C)(c2ccccc2)C1=O (centres undefined)	-10%	i
COCCNC(=O)c1cc(-c2ccc3c(c2)OCO3)on1	-7%	1%
Cc1cc(C)c(NC(=O)CNC(=O)COC(=O)Cc2cccs2)c(C)c1	-17%	-6%
COCCCNC(=O)C[C@H]1C[C@H](C(=O)N2CCOCC2)[C@@]2(C)c3[nH]c4cc(CCC(=O)N(C)C)ccc4c3CCN2C1=O	1%	i
O=C(Nc1ccc(OC(F)(F)F)cc1)N1CCc2nc(NCc3cccc(Oc4ccccc4)c3)ncc2C1	-15%	-5%
CCc1sc(Nc2cccc(C)c2)nc1-c1cc2cccc(OC)c2oc1=O	-14%	-10%
O=C(Cc1ccccc1)Nc1ccc(NC(=O)c2ccccc2)nc1	-8%	-12%
COC(=O)c1ccccc1NC(=O)c1ccc(-c2cccc(Cl)c2)o1	-9%	x
CCOC(=O)C1CCN(C(C(=O)NC2CCCC2)c2ccc(C)cc2)CC1 (centres undefined)	-3%	i
CCN1CCN(CC(O)COc2ccc(C)c(C)c2)CC1 (centres undefined)	-12%&1%	i
O=C(CSc1nc2ccccc2c(=O)n1-c1ccc(OC(F)F)cc1)NCc1cccs1	-18%	-13%

Random draw from the library; overall some 0.82% were active at least once.
